gsp antagonist: qHTS for Antagonists of gsp, the Etiologic Mutation Responsible for Fibrous Dysplasia/McCune-Albright Syndrome: qHTS. gsp-mutant cells, cAMP HTRF, 30 min; control for the full effect not named in the record. AID 624288, 2012. 340,000 compounds, 0.4% hits. Potency, µM (highest dose often 76.9 µM), for the others: at the top dose activity change, negative = inhibition, actives largely listed as inhibitors; active = falling curve of any shape with a large fitted effect; inconclusive = falling curve, mostly with a smaller effect; inactive = flat or rising curve; cell line not stated here;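 also: intracellular cAMP measured with PDE inhibitor Ro 20-1724 present during compound exposure; potency is read from the fitted curve at half-maximal effect; % is scaled to controls: 0 for no effect and ±100 for the full control effect; nearly all actives have a fitted effect of over 65% in size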
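HTRF cAMP measurement after 30 min RT detection following 30 min, 37C compound treatment alongside […] (added as 300 uM solution) in G418-selected cells seeded at 2000/well and grown 16–24 h.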
ClpP mod: qHTS Assay for Activators of ClpP | ATP-dependent Clp protease proteolytic subunit (Bacillus subtilis (strain 168)), P80244 | purified B. subtilis ClpP, FRET peptide cleavage, 20 min | Potency, µM (top dose mostly 57.5 µM), inactives show at the highest dose activity change, negative = active | 340,000 compounds, 1.9% hits; active = well fitted falling curve with a large enough effect; inconclusive = small, poorly fitted or top-dose-only effect; inactive = no such curve, though single readings can be large or run the other way; also: potency is read from the fitted curve at half-maximal effect; the source files actives as falling curves though it sought activators and does not explain the sign; nearly all actives have a fitted effect of over 65% in size; many hits overshoot -100%
Target sequence (P80244 whole entry, looked up): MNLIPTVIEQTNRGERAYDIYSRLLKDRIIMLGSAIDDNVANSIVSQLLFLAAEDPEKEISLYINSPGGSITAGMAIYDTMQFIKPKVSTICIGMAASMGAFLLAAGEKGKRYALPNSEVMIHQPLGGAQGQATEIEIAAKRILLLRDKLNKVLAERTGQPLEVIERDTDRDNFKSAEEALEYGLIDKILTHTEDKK
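FRET quenching reversal measured ClpP activation: 10 microg/mL B. subtilis ClpP at pH 8 with the FRET-FV decapeptide, read at 430 nm after 320 nm excitation. The 20-min minus 0-min signal was scaled between DMSO/no-enzyme wells and ADEP (5.8 microM final).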
TRPV1 PAM: HTS Assay for Compounds that Act as Potentiators of the Vanilloid Receptor 1; AID 540277, 2011; 320,000 compounds, 0.02% hits; TRPV1-expressing cells, Fluo-8 calcium influx, capsaicin EC20 potentiation; host cell line not named in the record; control for the full effect not named in the record; Transient receptor potential cation channel subfamily V member 1 (Homo sapiens), Q8NER1; potentiation, % at 8.33 µM; active means potentiation above 80%; inconclusive means 30% to 80%; inactive means below 30%; also: 0% is about no effect
Target sequence (Q8NER1 whole entry, looked up): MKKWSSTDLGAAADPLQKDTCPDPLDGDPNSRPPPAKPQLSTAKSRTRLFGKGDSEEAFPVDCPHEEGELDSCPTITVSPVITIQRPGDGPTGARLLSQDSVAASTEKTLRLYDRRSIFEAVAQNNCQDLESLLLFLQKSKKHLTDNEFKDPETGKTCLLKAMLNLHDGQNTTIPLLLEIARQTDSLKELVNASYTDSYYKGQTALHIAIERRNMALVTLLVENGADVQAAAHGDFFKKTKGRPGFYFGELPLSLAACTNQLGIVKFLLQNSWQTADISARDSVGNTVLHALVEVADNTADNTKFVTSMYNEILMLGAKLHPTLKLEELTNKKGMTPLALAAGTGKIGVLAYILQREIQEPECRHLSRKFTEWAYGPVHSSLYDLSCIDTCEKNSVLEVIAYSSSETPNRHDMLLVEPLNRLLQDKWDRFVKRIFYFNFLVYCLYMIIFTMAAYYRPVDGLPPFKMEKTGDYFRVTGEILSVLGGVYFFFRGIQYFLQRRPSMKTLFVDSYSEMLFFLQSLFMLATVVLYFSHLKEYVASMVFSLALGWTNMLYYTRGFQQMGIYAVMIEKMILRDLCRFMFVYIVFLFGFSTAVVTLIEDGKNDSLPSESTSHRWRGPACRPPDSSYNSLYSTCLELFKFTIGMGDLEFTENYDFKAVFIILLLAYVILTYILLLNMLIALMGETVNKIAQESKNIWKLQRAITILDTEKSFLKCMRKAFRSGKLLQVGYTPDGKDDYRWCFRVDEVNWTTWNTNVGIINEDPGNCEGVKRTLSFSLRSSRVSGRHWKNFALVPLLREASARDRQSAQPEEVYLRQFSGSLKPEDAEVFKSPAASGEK
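Fluo-8 calcium influx in TRPV1-expressing cells, kinetic read (ex 480/em 520 nm). Compound added and read 3 min for agonist activity, followed by capsaicin at EC20 final and 2 min further read for enhancement.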
gsp agonist: qHTS for Agonist of gsp, the Etiologic Mutation Responsible for Fibrous Dysplasia/McCune-Albright Syndrome: qHTS; AID 624287, 2012; 340,000 compounds, 0.13% hits; gsp mutant cells, cAMP HTRF, 30 min; control for the full effect not named in the record; Potency, µM (titrated, usually from 76.9 µM), inactives show at the top dose activation (cAMP increase), most hits filed as activators; active = well fitted activation curve with a large enough effect; inconclusive = small, poorly fitted or top-dose-only effect, or another doubt; inactive = no such curve, though single readings can be large or run the other way; cell line not stated here;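 also: phosphodiesterase inhibitor Ro 20-1724 added with compounds to block cAMP breakdown; potency is read from the fitted curve at half-maximal effect; nearly all actives have a fitted effect of over 60% in size; about a fifth of the inactives were tested at one dose only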
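Cells in DMEM/10% FBS with G418 were pretreated with compounds in DMSO plus […] (300 uM stock) for 30 min at 37C. cAMP was measured by HTRF (cAMP-d2 plus anti-cAMP antibody-K) after 30 min at room temperature.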
Menin MLL FP FL: qHTS Assay for Inhibitors Targeting the Menin-MLL Interaction in MLL Related Leukemias: Competition With Fluorescein Labeled MLL-derived Peptide. Fluorescence polarization, fluorescein-MLL peptide displacement from menin. FP activity change, % at 61.4 µM. 290,000 tested, under 10 active. AID 1766, 2009; inconclusive = falling polarisation curve, or a change in total fluorescence; inactive = total fluorescence flat and polarisation flat or rising; no compound was filed as active; the % refers to the polarisation; negative = inhibition;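 also: % of control where 0% means no effect; inhibitors lower the polarisation; unlabelled MLL peptide was the positive control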
TRPML1 inh: qHTS for Inhibitors of the Human Mucolipin Transient Receptor Potential 1 (TRPML1). activity change, negative = inhibition, % (no concentration beside the values). 390,000 compounds, 0.02% hits. TRPML1-inducible cells, Ca2+ dye fluorescence, FDSS; active compounds read low; inhibition of EC80 agonist-evoked calcium signal. AID 624415, 2012; in the data active means activity change below about -50%; inconclusive means about -30% to -50%; inactive means above about -30%;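 also: stimulus is agonist 54-4 at its EC80 concentration; % is scaled to controls: 0 for no effect and ±100 for the full control effect; compound concentration not given in the record; the text of the record puts the active cut at -80%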
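Tet-induced TRPML1-DL cells loaded with Ca8 no-wash calcium dye were read kinetically on FDSS. Compound addition was followed by EC80 agonist 54-4 (4 uM final); inhibition was read over 110 s.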
Sfp PPTase inh: qHTS Assay for Inhibitors of Bacillus subtilis Sfp phosphopantetheinyl transferase (PPTase). Biochemical Sfp PPTase activity, qHTS. Potency, µM, for the others: max response, negative = inhibition, hits mostly inhibitors. 310,000 compounds, 3.5% hits. 4'-phosphopantetheinyl transferase ffp (Bacillus subtilis), Q9F4F7; active = well fitted inhibition curve with a large enough effect; inconclusive = small, poorly fitted or top-dose-only effect, or another doubt; inactive = no such curve, though single readings can be large or run the other way;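 also: the enzyme is Sfp with the accession as filed and its product quenches rhodamine fluorescence; potency is read from the fitted curve at half-maximal effect; 0% = enzyme reaction without inhibitor and -100% = no enzyme wells; top concentration of the series not given in the record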
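Buffer: 50 mM Hepes-Na pH 7.6, 10 mM MgCl2, 0.01% Nonidet P-40, 0.01% BSA. Enzyme 15 nM, pre-exposed to compound 15 min; substrates then added and fluorescence change tracked over 30 min.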
* hit, by the source's call; u = inconclusive; x = not tested or not shown; & = joins results of further samples; [ ] = remark or other dose. Random draw from the library, and some 4.9% of all compounds hit somewhere here.

Compound	gsp antagonist	ClpP mod	TRPV1 PAM	gsp agonist	Menin MLL FP FL	TRPML1 inh	Sfp PPTase inh
COc1ccc(OCC(=O)Nc2ccc(S(=O)(=O)N3CCCC3)cc2)cc1	-10%	x	-1	3%[15.4 µM]	4.1	-11	10%
CC(C)Cn1cc(F)c(=O)n(CC(C)C)c1=O	12%	x	11	-7%[15.4 µM]	-1.4	-11	15%
COc1cccc2c1Oc1ncccc1N(C(=O)CCC(=O)NCc1ccccc1Cl)C2	1%	0.2%&-0.4%	6	8%	-0.2	-12&-3	0%
Cc1ccc(S(=O)(=O)c2nnn3c2nc(N2CCC(C(N)=O)CC2)c2ccccc23)cc1	4%	-1.6%	1	u	-2.5	-2	-1%
COc1ccc(NC(=O)/C=C/c2ccc(OC(F)F)cc2)cn1	-7%	x	-12	-3%	1.0	2	-1%
CCc1ccc(C(=O)CSc2nc(C)cc(=O)[nH]2)cc1	-14%	x	23	9%	-0.8	-8	-20%
Cc1c(-c2ccc(O)cc2)nc2nc(-c3ccccc3)c(-c3ccccc3)nn12	x	x	16	x	5.3	x	-2%
COc1ccc2[nH]c3c(N4CCc5ccccc5C4)ncnc3c2c1	-13%	1.1%	-3	-1%[15.4 µM]	1.0	38	-13%
Cc1cc(C)cc(N(CC(=O)N2CC=C(c3ccccc3)CC2)S(=O)(=O)c2c(C)noc2C)c1	-6%	-2.9%	-3	9%	0.3	21	-8%
CCOC(=O)C1CCCN(C(=O)c2ccc(-c3ccccc3Cl)o2)C1 (stereo not given)	-19%	x	x	-15%[15.4 µM]	x	6	x
CCn1c(/C=C/c2ccc(F)cc2)nc2ccccc2c1=O	-15%	-2.4%	-1	-14%	2.4	22	6%
O=C(NCCc1ccccc1)c1ccc(-c2ccc(F)cc2)o1	-11%	x	-3	-13%	0.2	2	-7%
COc1ccc(CC(=O)N2CC(C)CC(C)C2)cc1OC (stereo not given)	-7%	-2.9%	-6	u	5.6	-8	7%
Cc1ccc(-n2nc3c(c2NC(=O)c2c(-c4ccccc4Cl)noc2C)CS(=O)(=O)C3)c(C)c1	-24%	0.5%	1	-14%	2.1	12	-9%
CCN(CC(=O)NCc1cccs1)C(=O)c1cc(Br)ccc1O	10%	-3.4%	x	-19%	x	3	x
Cc1cc(C)n(CC(C)NC(=O)CCc2nnc(CCc3ccccc3)o2)n1 (stereo not given)	5%	x	5	-27%[15.4 µM]	-2.6	7	-10%
CN(C(=O)CSc1ncn[nH]1)C1(C#N)CCCCC1	11%	0.0%	x	u	x	-9	x
Cc1ccc(C(=O)N2CCN(c3ccccn3)CC2)cc1[N+](=O)[O-]	-2%	-0.6%	6	8%[15.4 µM]	-1.9	5	15%
COc1ccc(CCNC(=O)Cn2cccc2C(=O)c2ccccc2)c(OC)c1	-5%	3.5%	12	-9%	7.6	-3	10%
CC(=O)c1cccc(Nc2nc(-c3sc(C)nc3C)cs2)c1	u	-1.1%	-21	3%[15.4 µM]	-3.0	11	-5%
NS(=O)(=O)c1ccc(CCNC(=O)C(c2ccccc2)c2ccccc2)cc1	-7%	x	-9	8%	1.2	3	8%
CCCC(=O)Nc1ccc(NC(=O)CCc2ccccc2)cn1	14%	-6.2%	-6	13%	5.5	-6	10%
CC1CCCC(NC(=O)COC(=O)/C=C/c2ccc([N+](=O)[O-])cc2)C1C (stereo not given)	4%	-1.5%	x	20%	x	8	x
O=C(CNC(=O)c1ccccc1)OCc1nnc(-c2ccccc2)o1	-7%	0.5%	2	10%	x	3	x
O=C(CN1CCN(CC(=O)Nc2ccc(-c3ccccc3)cc2)CC1)Nc1ccc(F)cc1	-1%	x	-9	15%	3.8	25	-5%

More entries.
Compound	gsp antagonist	ClpP mod	TRPV1 PAM	gsp agonist	Menin MLL FP FL	TRPML1 inh	Sfp PPTase inh
OC[C@@H]1[C@@H](c2ccccc2)C(c2ccc(F)cc2)=NN1c1ccccc1	-7%	4.6%	x	x	8.9[94.6 µM]	5	11%
Cc1cccc(NC(=O)/C=C/c2ccc3c(c2)OCO3)n1	-1%	u	-12	-1%	4.5	-22	u
O=C(c1ccc(C(F)(F)F)n(Cc2ccc(Cl)cc2)c1=O)N1CCOCC1	-11%	1.1%	-21	-61%[inhibitor]	1.5	x	14%
Cc1cccc(CNC(=O)C2CCC(=O)N(C3CCCC3)C2)c1 (stereo not given)	7%	1.0%	2	-60%[inhibitor]	x	-11	16%
O=C(c1cnn(C(=O)c2ccco2)c1)c1cc(F)ccc1O	u	26%	x	9%	x	16	x
O=C(CSc1ncnc2ccccc12)c1ccco1	-3%	-18%	2	10%[15.4 µM]	14	38	20µM*
Cc1ccc(NC(=S)N2CCCC2)cc1	19%	-1.2%	3	27%	-2.2	-12	5%
COc1ccccc1NC(=O)C(C)OC(=O)C(C)SCC(=O)Nc1ccc(C)cc1 (stereo not given)	8%	-0.4%	3	18%	x	26	x
C[C@H](CO)N1C[C@H](C)[C@@H](CN(C)C(=O)NC2CCCCC2)Oc2ccc(NC(=O)C3CCCCC3)cc2C1=O	5%	-0.7%	x	x	x	10	x
COc1cc(/C=C2\SC(=S)N(NC(=O)c3ccc(O)cc3)C2=O)ccc1O	-13%	x	-19	u	u	25	5%
CCCNC(=O)c1ccccc1NC(=O)c1ccc2c(c1)NC(=O)C(C)S2 (stereo not given)	-11%	-3.9%	1	-9%	x	-4	5%
Cc1ccc(C)c(OCC(=O)NC2CCCCCC2)c1	-9%	11%	-14	4%[15.4 µM]	x	-13	5%
COc1ccc(C2CC(=O)NC3=C2C(=O)CCC3)cc1Cl (stereo not given)	2%	-2.3%	-17	-20%	3.1	9	26%
Nc1ccc(C(=O)OCCCc2nc3ccccc3[nH]2)cc1	10%	28µM*	16	6%	1.3	59	-3%
C=CCNc1cc(C)oc(=O)c1C(=O)CC	16%	0.2%	-4	16%[15.4 µM]	4.6	8	0%
CS(=O)(=O)N1CCC(Oc2ccccc2C(=O)N2CCC[C@H]2CO)CC1	11%	-1.6%	14	26%	x	-1	15%
CC(C)CCNC(=O)c1ccccc1NC(=O)C1=CSCCO1	-7%	-1.2%	11	10%	x	-10	14%
COc1ccc(OC)c(NC(=O)c2ccc(OCC(=O)N3CCOCC3)c(OC)c2)c1	-7%	x	-2	27%[15.4 µM]	x	0	x
COc1ccccc1NC(=O)COC(=O)c1ccc(N2CCCC2=O)cc1	-4%	-13%	18	29%	x	11	x
COc1ccc(NC(=S)N2CCN(C(=O)C3CCCO3)CC2)c(OC)c1 (stereo not given)	7%	x	4	2%[15.4 µM]	2.6	-13	-22%
CC(C)CN(C(=O)CN1CCN(c2ccc(O)cc2)CC1)c1c(N)n(CC(C)C)c(=O)[nH]c1=O	-7%	-9.9%	-9	-8%	x	-3	25µM*
COc1cccc(CNc2ccccc2O)c1OCc1ccccc1F	-8%	x	-4	-8%[15.4 µM]	3.7	-21	50µM*
C=CCSC1=N/C(=C\C=C\c2ccco2)C(=O)S1	-3%	4.4%	14	u	u	-13	56µM*
O=C(CCn1cncn1)N1CCCC(N2CCN(c3cccc(C(F)(F)F)c3)CC2)C1 (stereo not given)	10%	-1.3%	-3	-1%	1.6	-9	-2%
O=C(N/N=C\c1ccncc1)c1ccc(Br)s1	6%	-0.2%	-10	7%	-1.7	-4	14%

Filtered by structure: the compounds so far containing a thiophene ring, fused or not (2)
Compound	gsp antagonist	ClpP mod	TRPV1 PAM	gsp agonist	Menin MLL FP FL	TRPML1 inh	Sfp PPTase inh
CCN(CC(=O)NCc1cccs1)C(=O)c1cc(Br)ccc1O	10%	-3.4%	x	-19%	x	3	x
O=C(N/N=C\c1ccncc1)c1ccc(Br)s1	6%	-0.2%	-10	7%	-1.7	-4	14%

Further records:
Compound	gsp antagonist	ClpP mod	TRPV1 PAM	gsp agonist	Menin MLL FP FL	TRPML1 inh	Sfp PPTase inh
c1ccc(CN2CCOCCOCCOCCOCC2)cc1	8%	x	0	13%[15.4 µM]	-1.4	25	6%
CC[C@](C)(O)c1cc2ccccc2c(=O)o1	8%	-2.0%	x	x	x	5	x
COc1ccccc1CNS(=O)(=O)c1ccc2c(c1)CC(=O)N2C	-12%	2.1%	7	u	1.2	4&-7	5%
CC(=O)c1ccc(OCC(=O)NCC2(N3CCCCC3)CCCCC2)cc1	6%	-5.4%	2	-17%	-4.3	15	9%
COc1cccc(C(=O)N2CCN(C(=O)COc3ccc4ccccc4c3)CC2)c1	-7%	x	-4	-8%[15.4 µM]	x	0	11%
Cc1oc(=O)c(NC(=O)c2ccc(Cl)cc2)cc1C(=O)c1ccccc1	0%	-0.8%	17	3%	24	14	8.9µM*
Cc1cccc(NC(=O)CN2C(=O)S/C(=C\c3ccc(-c4cccc(C(=O)O)c4C)o3)C2=O)c1	-22%	x	u	11%	u	10	-17%
O=C(Nc1ccc(N2CCN(C(=O)c3cccs3)CC2)cc1)c1ccco1	-22%	x	1	11%[15.4 µM]	2.8	22	15%
CC(=O)Nc1c(C)ccc(CNC(=O)COc2ccc(F)cc2)c1C	4%	x	16	-1%	-3.3	25	2%
Cc1cc(=O)oc2cc(OCC(=O)NCCN3CCOCC3)ccc12	7%	x	6	2%	x	26	14%

Bioassay records deposited in PubChem by National Center for Advancing Translational Sciences (NCATS).
